Env fusion inh – inhibitors of HIV-1 Env-driven cell-cell fusion, primary screen, HeLa-JRFL effector, CEM21 target cells, luciferase. hit rate 1.1% among 360,000. AID 651610, 2012. inhibition, % at 12.3 µM;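 active = mean replicate inhibition score of at least 50 and every replicate individually at or above 50; inconclusive = only one of the two criteria met; inactive = mean below 50 and not all replicates reaching 50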;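 note: 0% = plate neutral controls and 100% = maraviroc near 300 nM; one replicate is shown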
PABP polyA inh – PABP poly(A) RNA binding inhibitors, primary screen, biochemical, fluorescence polarization, uHTS; inhibition, % at 35 µM; hit rate 1% among 290,000;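 active = 50% or more with normal probe brightness, or confirmed in later tests; inconclusive = above 50% with abnormal brightness, or retests that disagree; inactive = below 50% or failed in later tests; about a fifth of its hits are not listed in these tables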;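 note: calls also rest on retests at 20 µM and on dose response follow-up; controls were probe without protein and protein plus probe with vehicle; some compounds called inactive have numbers as strong as hits; many hits fall short of the cut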
MT1-MMP act inh – blockers of MT1-MMP proenzyme processing, primary screen, HT1080 RFP-PRO-GFP cells, GFP/RFP fluorescence; GFP/RFP ratio change, % at 20 µM; GFP/RFP ratio fluorescence, overnight; percent of plate control window, DMSO zero; hit rate 0.061% among 360,000; Matrix metalloproteinase-14 (Homo sapiens), P50281;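 active = GFP/RFP ratio change of at least 30% with cell ATP level not reduced by more than half and red fluorescence within 50% of control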; note: strong numbers were not always called active
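system = RFP-PRO-GFP reporter HT1080 cells | dosing = 20 µM single dose, 1% DMSO | timing = overnight cell settling, then overnight compound exposure, 37 °C, 5% CO2 | read-out basis = GFP/RFP fluorescence ratio | controls = DMSO and RFP-L50D-GFP cell wells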
Rce1 inhib – yeast Rce1p protease inhibitors, primary screen, biochemical, fluorescence, cell-free homogeneous. CAAX prenyl protease 2 (Saccharomyces cerevisiae (strain ATCC 204508 / S288c)), Q03530. yeast membranes, quenched prenylated peptide cleavage fluorescence. calls only. hit rate 0.27% among 290,000. AID 2563, 2010;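 active = fall in fluorescence gain of 50% or more versus controls, with final raw signal at or below 3038400; inconclusive = same 50% fall but final raw signal above 3038400; inactive = fall in fluorescence gain under 50%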;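 note: plate controls were neutral control wells for no effect and wells lacking membranes for full effect; tested at 10 µM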
Target sequence (Q03530 whole entry, looked up): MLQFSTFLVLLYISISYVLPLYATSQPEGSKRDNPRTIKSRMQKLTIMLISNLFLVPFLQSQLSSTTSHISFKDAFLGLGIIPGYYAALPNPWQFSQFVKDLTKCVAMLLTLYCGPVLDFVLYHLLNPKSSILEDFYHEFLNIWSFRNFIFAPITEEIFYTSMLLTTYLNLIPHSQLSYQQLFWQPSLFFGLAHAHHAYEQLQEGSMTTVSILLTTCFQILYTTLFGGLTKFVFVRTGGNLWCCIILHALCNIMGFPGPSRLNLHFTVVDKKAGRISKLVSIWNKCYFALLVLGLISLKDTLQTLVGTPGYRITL
UUG fidelity – modulators of yeast start codon fidelity, primary screen, whole organism, S. cerevisiae, single point, plate reader; S. cerevisiae UUG-firefly luciferase reporter, luminescence/redox ratio; activity score, % at 18.7 µM; hit rate 0.13% among 350,000; AID 602363, 2012;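 active = replicate mean at a twofold rise or more, about +100% in these data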;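 note: firefly luciferase made from a UUG start codon reports start codon fidelity; reporter light over untreated wells divided by growth signal over untreated wells; some hits fall short of that in this replicate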
eIF4H inh – human eIF4H binding inhibitors, primary screen, translation initiation inhibitor project, biochemical, uHTS, fluorescence polarization; eIF4H fluorescence polarization binding assay; inhibition, % at 35 µM; hit rate 0.94% among 290,000; AID 2012, 2009;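 active = 50% or more with normal probe brightness, or confirmed in later tests; inconclusive = above 50% with abnormal brightness, or retests that disagree; inactive = below 50% or failed in later tests; about a fifth of its hits are not listed in these tables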;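 note: calls also rest on retests at 20 µM and on dose response follow-up; 0% = protein and probe with vehicle and 100% = probe without protein; strong numbers were not always called active; many hits fall short of the cut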
CSC inhib – cancer stem cell viability inhibitors, primary screen, luminescence; inhibition, % at 7.5 µM; AID 2717, 2010; hit rate 1.1% among 300,000; cancer stem cell-like cells viability;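 active = mean at 75% or more and at least half the replicates too; inconclusive = mean and replicates disagree; tested in HMLE shEcad cells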;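 note: 0% = median of negative and 100% = median of positive control wells; the first replicate is given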
eIF4H inh retest – recorded beside eIF4H inh, whose call it bears; inhibition, %; compound at 20 µM; confirmation average;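 mean of two retest wells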
PABP polyA inh retest – recorded beside PABP polyA inh, whose call it bears; inhibition, %; compound at 20 µM; confirmation repeats;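 mean of two retest wells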
MT1-MMP act inh RFP – also measured in MT1-MMP act inh; calls as there; RFP signal change, %; measured here: RFP expression control read;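 0 = vehicle wells; hits needed this value within 50% of zero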
* marks the source's active call; other numbers are inactive results; i = inactive; u = inconclusive; x = not tested or not shown; & = joins results of further samples.

SMILES	Env fusion inh	PABP polyA inh	MT1-MMP act inh	MT1-MMP act inh RFP	Rce1 inhib	UUG fidelity	eIF4H inh	CSC inhib	others
COC(=O)C1=C(c2ccc(C(C)=O)cc2)C[C@@H]2CC[C@H]1N2C(=O)NC1CC1	-30.7	x	4.1	4.2	x	-2.9	x	6.4
Cc1cc(Cl)ccc1C(=O)C1CCCN(C2CCSCC2)C1 (centres undefined)	1.5	-0.1	-13.6	-6.0	i	-11.9	4.8	-2.0
O=[N+]([O-])c1ccc(Cl)c([N+](=O)[O-])c1	-14.8	x	1.1	5.8	x	0.7	x	102.1*
CCOc1ccc(-n2c(O)c(C=Nc3ccc(NC(C)=O)cc3)c(=O)[nH]c2=O)cc1	-6.6	1.0	-0.2	4.3	i	x	-3.3	0.7
Cn1c(O)c(N=Nc2ccc(S(=O)(=O)N3CCOCC3)cc2)c(=O)n(C)c1=O	-83.9	5.6	5.9	10.1	i	x	1.7	-3.9
CCOC(=O)CC(SP1(=S)OCC2(CCCCC2)CO1)C(=O)OCC (centres undefined)	9.8	x	3.5	-1.6	x	-20.8	x	x
Cc1cc(N(CCCl)CCCl)ccc1/C=N/NC(=O)c1ccco1	-12.7	1.3	-1.1	-1.2	i	-7.7	-4.1	12.8
CN(C)c1ccc(C=C2C(=O)NC(=O)NC2=O)cc1[N+](=O)[O-]	12.2	-4.5	1.9	7.1	x	-8.4	1.6	5.0
CCOP(=S)(OCC)Oc1nc(Cl)c(Cl)cc1Cl	x	x	6.7	4.4	x	12.0	x	1.8
CN1C2CCC1CC(OC(c1ccccc1)c1ccccc1N)C2 (centres undefined)	20.0	x	-7.9	-0.9	i	-6.4	x	-13.8
O=C1NCN(c2ccccc2)C12CCN(C(c1cccs1)c1nnnn1C1CCCC1)CC2 (centres undefined)	-85.9	x	-2.8	-5.8	x	-4.7	x	x
C[C@]12CCC3C(CC[C@H]4C[C@H](O)CC[C@]34C)C1CC(=O)[C@@H]2O (some centres undefined)	-18.8	x	-0.5	0.2	x	-2.6	x	2.6
O=C(c1ccc(N2CCCCC2)c([N+](=O)[O-])c1)N1CCC2(CC1)OCCO2	15.8	-8.2	6.7	4.2	i	-4.5	-11.6	15.6
O=C(c1cccs1)C1CN2CCC1CC2 (centres undefined)	x	1.2	3.1	7.4	i	-11.2	-2.7	-14.0
CC(=O)N1CC(=O)Nc2ccc(F)cc2C1c1ccccc1 (centres undefined)	-4.6	6.6	-1.2	4.5	i	-15.1	-3.1	4.8
Cc1cc(Oc2cc(NN3CCCCC3)c([N+](=O)[O-])cc2[N+](=O)[O-])ccc1[N+](=O)[O-]	18.4	4.8	-5.5	-6.7	i	-15.0	22.6	33.6
NC(Cc1ccc(Cl)cc1)c1csc(Nc2ccccn2)n1 (centres undefined)	-10.5	x	-1.2	3.4	x	-8.1	x	x
CCC1(CC)C(=O)NC(=NCCc2c[nH]c3ccccc23)NC1=O	-17.3	-0.5	0.9	4.1	i	-21.9	3.0	-10.1
COc1ccc(CNCCc2c[nH]c3ccccc23)c(OC)c1C	70.6*	-8.1	-2.5	-4.0	i	2.0	-4.1	17.2
CCC(=NCCOc1ccc(Cl)cc1)c1c(O)n(C)c(=O)n(C)c1=O	49.6*	-4.9	5.2	-9.8	i	-2.4	-9.8	-2.9
COC(=O)C(=O)N1CC2(C)CNCC(C)(C1)C2=O	6.2	-12.6	-1.2	2.3	i	1.6	55.2	-2.6	eIF4H inh retest=21.2;PABP polyA inh retest=4.4
CC[N+]1(C)CCCC(OC(=O)C(O)(c2ccccc2)c2ccccc2)C1 (centres undefined)	12.7	-7.5	0.6	0.3	i	-22.2	-1.8	-13.9
Cc1nonc1OCCNCCNc1ccc([N+](=O)[O-])c2cccnc12	7.6	2.1	2.2	4.0	i	-8.0	1.8	-9.5
CC12CN3CC(C)(CN(C1)C3c1cccs1)C2 (centres undefined)	-46.3	2.4	1.5	8.0	i	-12.8	1.7	-10.8
CN(C(=O)Oc1ccc(Cl)c2cccnc12)c1ccccc1	x	-7.9	-6.0	-4.3	i	0.7	25.6	-10.6
CCN1c2nc3c(C)cccn3c(=O)c2CC2(C(=O)N(C)C(=O)N(C)C2=O)C1C (centres undefined)	-1.9	4.8	4.8	6.1	i	28.9	-6.5	-6.7
Cn1cccc1/C=C1/C(=O)NC(=O)N(Cc2ccccc2)C1=O	x	-9.1	0.0	0.6	i	x	u	x
C=CCN(c1ccc(C(=O)N(CC)CC)cc1)S(C)(=O)=O	x	4.5	-11.4	0.4	x	-8.0	7.3	1.9
Cc1ccc2nc(C)n(-c3ccc(F)cc3)c(=O)c2c1	6.5	-4.4	-1.9	1.4	i	-6.9	4.4	10.5
CC(=O)Nc1ccc(OC(=O)c2ccccc2N)cc1	x	12.3	-0.2	2.4	i	-10.0	0.5	3.3
Oc1cccc(/C=N/NP(=S)(c2ccccc2)c2ccccc2)c1	-57.5	-1.2	2.7	-2.6	i	-19.5	-2.3	-11.0
Cc1cc(OCCCC(=O)NCc2cccs2)ccc1Cl	1.5	-2.2	2.5	1.5	i	-2.6	2.9	2.4
COC(=O)C1=C(c2ccc(Cl)c(C(F)(F)F)c2)C[C@@H]2CC[C@H]1N2C(=O)N1CCC(O)(c2ccc(Cl)cc2)CC1	0.7	x	0.1	-7.3	x	-0.4	x	x
CCOc1ccc(N=Cc2c(O)n(CCc3ccc(OC)c(OC)c3)c(=O)[nH]c2=O)cc1	-4.0	-23.6	-5.0	-19.6	i	x	-20.1	-2.1
CC(C)n1c(=O)c(C=Nc2ccc(Cl)cc2)c(O)n(Cc2ccco2)c1=O	-56.9	-4.2	x	x	i	x	50.0	50.7
CCc1ccc(-n2c(O)c(C(C)=O)c(=O)[nH]c2=O)cc1 (tested in a mixture with another compound)	-1.8	15.5	-4.7	3.4	i	x	64.4	-8.9	eIF4H inh retest=-2.2;PABP polyA inh retest=0.1
CC12CNCC(C)(CNC1)C2O (centres undefined)	x	11.5	2.7	5.1	i	-18.2	1.6	0.8
O=C1NCN(c2ccccc2)C12CCN(C(c1cccc3ccccc13)c1nnnn1Cc1ccccc1)CC2 (centres undefined)	-34.7	x	0.3	-7.6	x	-4.1	x	x
O=c1c2ccccc2nc(-c2ccco2)n1-c1ccc(Br)cn1	-53.4	5.1	-6.0	-6.7	i	-6.7	-4.5	-8.3
CS(=O)(=O)c1ccc(C2=C(CNC(=O)c3nccs3)[C@H]3CC[C@@H](C2)N3Cc2ccccc2)cc1	6.3	x	-0.2	2.7	x	-8.3	x	x
OC(COCc1ccc(Cl)cc1)CN1CC=C(c2ccccc2)CC1 (centres undefined)	7.7&29.0	23.7	1.9&1.7	-4.4&-2.0	i	-14.9&-3.6	10.4	25.2
C=CCn1c(O)c(C(C)=NCCc2c[nH]c3ccccc23)c(=O)[nH]c1=O	16.7	7.0	1.8	4.2	i	x	1.4	19.4
Cc1ccc(N2C(=O)NC(=O)/C(=C/c3cnc(-c4ccccc4)nc3)C2=O)cc1C	-4.9	-8.4	-20.9	6.4	i	x	18.9	-9.7
CC(C)[C@H]1CC2C3CC=C4C[C@@H](O)CC[C@]4(C)C3CC[C@]2(C)[C@H]1O (some centres undefined)	-10.3	x	0.8	-0.1	x	-0.2	x	16.4
COc1cc(OC)c(C=O)c(OC(=O)N(C)C)c1	10.0	-18.6	1.7	2.0	i	-13.4	3.9	1.2
CCCCC(CC)CNCC(O)c1ccccc1 (centres undefined)	5.4	-6.3	5.9	6.1	i	-15.9	2.6	0.5
CN1CCN(CCC(=O)OC2CC3CCC(C2)N3C)CC1 (centres undefined)	x	-7.8	-1.9	-3.5	i	-15.6	8.6	-5.1
CN1CCCCC1c1ccc(-c2cccnc2)nc1 (centres undefined)	x	8.2	2.9	1.8	i	-7.8	1.6	-2.3
O=P(O)(Oc1ccccc1)OC(c1ccccc1)C(F)(F)C(F)(F)F (centres undefined)	22.3	2.2	3.0	5.7	i	-1.0	2.2	-3.6
Cc1ccc(P(=S)(c2ccc(C)o2)N2CCOCC2)o1	x	4.5	-5.6	2.6	i	-2.2	-5.4	76.5*

Further results follow.
SMILES	Env fusion inh	PABP polyA inh	MT1-MMP act inh	MT1-MMP act inh RFP	Rce1 inhib	UUG fidelity	eIF4H inh	CSC inhib	others
CC(C)CN(C(=O)CN1CC=C(c2ccccc2)CC1)c1c(N)n(CC(C)C)c(=O)[nH]c1=O	-0.5	-8.2	-8.3	-6.0	i	7.7	0.8	-4.6
O=C(CCl)NCC1CCCO1 (centres undefined)	-3.0	10.0	2.6	4.2	i	x	33.0	x
N#CC(C#N)=Cc1ccc(C=C(C#N)C#N)cc1	3.3	22.0	-5.0	2.9	x	20.6	32.5	x
Cn1cc(C=C(C#N)C#N)c2ccccc21	-8.9	u	-7.1	-4.6	i	-5.2	u	-8.1
N#CCCn1cc(C(=O)Nc2ccccc2Cl)c(-c2ccc(F)cc2)n1	9.9	3.8	-2.3	0.8	i	-4.2	6.5	-22.2
c1ccc(N2C3C4CC(C5CCCC54)C32)cc1 (centres undefined)	-8.5	x	2.5	5.0	x	-20.4	x	x
Fc1ccc(CNC2CN3CCC2CC3)cc1 (centres undefined)	31.9	9.9	-1.9	3.1	i	-7.9	6.6	5.6
COc1ccc(CN2C(=O)NC(=O)/C(=C\c3cccc(OC)c3OC)C2=O)cc1	8.7	-2.8	1.4	2.4	i	x	22.0	-10.7
Cc1ccc(N2C(=O)CC(=O)NC2=O)c(C)c1	-1.2	2.4	-5.1	4.2	i	-42.8	3.1	0.5
CCCCC(=O)N/N=C/c1c(O)n(Cc2ccco2)c(=O)[nH]c1=O	x	20.1*	-1.5	9.0	i	-18.9	85.8	3.8	eIF4H inh retest=38.3;PABP polyA inh retest=62.3*
O=c1ccc2cc(O[C@@H]3O[C@H](CO)[C@@H](O)[C@H](O)[C@H]3O)c(O)cc2o1	-5.4	x	9.1	4.1	x	-2.1	x	x
CC(=O)OC1(c2ccccc2)CCN(C2CCCCC2)CC1C (centres undefined)	-9.3	-1.8	3.2	2.6	i	-4.4	-0.3	6.4
Cc1c(C(=O)N2CCC3(CC2)OCCO3)oc2ccc(S(=O)(=O)N3CCOCC3)cc12	-16.2	-2.0	5.9	-2.0	i	-4.3	-2.7	-12.4
Cc1nc2ccccc2c(=O)n1-c1ccccc1[N+](=O)[O-]	6.9	-9.4	-2.3	-0.1	x	x	12.3	1.4
CN1CCN(/N=C/c2c(O)n(C)c(=O)n(C)c2=O)CC1	-2.5	-4.8	-0.7	2.9	i	-11.8	-5.3	6.2

Looked up one by one from above (2):
SMILES	Env fusion inh	PABP polyA inh	MT1-MMP act inh	MT1-MMP act inh RFP	Rce1 inhib	UUG fidelity	eIF4H inh	CSC inhib	others
CC(=O)OC1(c2ccccc2)CCN(C2CCCCC2)CC1C (centres undefined)	-9.3	-1.8	3.2	2.6	i	-4.4	-0.3	6.4
Cc1nc2ccccc2c(=O)n1-c1ccccc1[N+](=O)[O-]	6.9	-9.4	-2.3	-0.1	x	x	12.3	1.4

Screens from PubChem BioAssay.

This is a subset; count on the stated rates, not on these rows.
